Assay outcomes: PubChem BioAssay, several laboratories
rRNA inh HTS – inhibits bacterial ribosomal RNA function over humanized ribosomes; E. coli WT GFP vs humanized-ribosome RFP mutants, fluorescence, 24 h; active compounds read low; DMSO median 0, no signal -100; GFP signal change (wild-type ribosome), % (concentration not given with the values); hit rate 1.6% among 350,000; AID 720706;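 active = significant combined selectivity score with lowered wild-type GFP, culture density cut under 30%, mutant RFP and density less affected; inactive = any of these conditions unmet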; note: one replicate is shown; some compounds called inactive have numbers as strong as hits
AF4-AF9 inh – inhibitors of human MLL-AF4/AF9 interaction; P42568; AlphaScreen, biotin-AF4 peptide binding to FLAG-AF9; inhibition, % at 10 µM; hit rate 0.47% among 350,000; AID 651704;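 active = every replicate reaching a set inhibition limit, whatever the replicate mean, cut at about 25% in these data; inconclusive = mean inhibition reaches that limit but some replicates miss it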;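 note: 0% = plate neutral control median and 100% = total signal loss; the record names both 10 and 1 µM as test concentration; the first replicate is given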
Target sequence (P42568 whole entry, looked up): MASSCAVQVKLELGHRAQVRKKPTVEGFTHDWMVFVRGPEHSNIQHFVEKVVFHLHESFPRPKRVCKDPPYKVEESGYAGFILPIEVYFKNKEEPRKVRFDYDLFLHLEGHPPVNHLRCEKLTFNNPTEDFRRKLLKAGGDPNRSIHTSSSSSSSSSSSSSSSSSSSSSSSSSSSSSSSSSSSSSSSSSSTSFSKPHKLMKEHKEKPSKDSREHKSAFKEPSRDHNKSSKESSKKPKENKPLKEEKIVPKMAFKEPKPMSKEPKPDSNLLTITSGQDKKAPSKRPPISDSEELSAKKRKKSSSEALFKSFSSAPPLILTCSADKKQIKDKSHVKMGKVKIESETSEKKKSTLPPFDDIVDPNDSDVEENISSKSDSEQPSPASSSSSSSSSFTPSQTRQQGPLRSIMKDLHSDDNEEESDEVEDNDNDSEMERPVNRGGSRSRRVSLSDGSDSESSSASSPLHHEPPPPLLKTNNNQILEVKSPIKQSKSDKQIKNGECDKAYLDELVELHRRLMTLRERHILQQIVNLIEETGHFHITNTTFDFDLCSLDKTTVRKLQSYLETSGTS
A1 inh – inhibitors of the anti-apoptotic protein A1, read as caspase activation; AID 2462; caspase activation, % (test concentration not listed); MEF A1-2A-BIM cells, Caspase-Glo 3/7 luminescence, 3 h; percent of clofoctol response, vehicle zero; hit rate 0.066% among 330,000;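 active = over half of replicate activation scores above 10%, or exactly half above 10 with the replicate mean above 10; inconclusive = replicate mean below 10 yet half the replicates above 10; inactive = over half of replicates below 10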;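 note: wells of about 30 µL received 50 nL stock; many hits fall short of the cut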
RanGTP-Impb inh – inhibitors of RanGTP-importin-beta interaction, primary screen, biochemical, FRET, CFP-Ran, YFP-importin-beta, homogeneous; hit rate 1.1% among 300,000; inhibition, % (concentration not given with the values); cell-free CFP-Ran/YFP-importin-beta FRET ratio;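 active = most replicates above 15%; inconclusive = exactly half above 15%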;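 note: 0% = DMSO wells and 100% = Ran loaded with GDP instead of GTP; wells of about 40 µL received 100 nL stock; the first replicate is given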
Beta cell apopt – beta cell apoptosis inhibition | INS-1E cytokine-induced death, ATP luminescence, 48 h; percent of positive-control rescue, neutral wells zero | AID 435005 | protection from apoptosis, % (no concentration beside the values) | hit rate 0.8% among 300,000;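 active = all replicates at 75% or more, or half of them and the mean; inconclusive = half reach 75% but not the mean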;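 note: 0% = cytokine-treated negative control wells and 100% = positive control rescue; higher means more ATP so stronger rescue from cytokine killing; wells of about 40 µL received 100 nL stock; the first replicate is given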
T cruzi repl – blocks replication of Trypanosoma cruzi | inhibition, % (concentration not given with the values) | T. cruzi beta-gal in NIH3T3, luminescence, 90 h | hit rate 1.4% among 300,000;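 active = mean inhibition across valid replicates above about 55%, limit read from the data; inconclusive = mean below that limit but half or more replicates reach it; inactive = mean below it, under half of replicates reach it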;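 note: signal also drops with host cell toxicity which is not excluded here; 0% = plate median of DMSO wells and 100% = zero luminescence signal; higher percent means less beta-gal luminescence so fewer parasites; stock transfer was 50 nL into about 50 µL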
Vif A3G – HIV-1 Vif–A3G interaction blockers – biochemical, TR-FRET, GST-Vif 1-94, biotin-A3G peptide, dose response retest, primary screen (AID 1117319); inhibition, %; hits with a dose series show IC50 in µM; TR-FRET GST-Vif / biotin-A3G peptide binding; higher % means a stronger effect; test concentration not given here; strong numbers were not always called active; hit rate 0.57% among 260,000;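 active = above the screen mean plus three standard deviations and confirmed in dose response; inconclusive = results disagree or hit not tested in dose response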;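 note: Vif residues 1-94 fused to GST binding biotinylated APOBEC3G peptide 110-148; 0% = full assay without inhibitor and 100% = GST in place of GST-Vif; retest series ran down from 100 µM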
Calb FLC – affects C. albicans growth with fluconazole. growth inhibition, % (concentration not given with the values). C. albicans CaCi-2 (fluconazole-resistant clinical isolate) + fluconazole, Alamar Blue growth, 48 h. hit rate 0.57% among 300,000;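 active = most replicates above 75%; inconclusive = exactly half above 75%; inactive = most below 75%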;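 note: all wells also contain fluconazole at 8 µg/ml as a sub-toxic cotreatment; 0% = median of DMSO wells and 100% = median of geldanamycin control wells; wells of about 8 µL received 7.5 nL stock; the first replicate is given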
rRNA inh HTS OD600 – further read-out of rRNA inh HTS, marked with its call; OD600 change, %; measured here: OD600 growth;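 optical density of the mix in the first replicate; 0 = DMSO median and -100 = no signal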
rRNA inh HTS RFP – also measured in rRNA inh HTS; calls as there; RFP signal change, %; measured here: RFP humanized mutant strains;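 first replicate; 0 = DMSO median and -100 = no signal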
Active calls of the source: *; ? = inconclusive; / = not tested or not shown. Not all compounds are listed; the hit share may differ from the screen's.

Below each SMILES – rRNA inh HTS | rRNA inh HTS OD600 | rRNA inh HTS RFP | AF4-AF9 inh | A1 inh | RanGTP-Impb inh | Beta cell apopt | T cruzi repl | Vif A3G | Calb FLC
1	CC1CCCN(c2nc3c(c(=O)[nH]c(=O)n3C)n2Cc2ccccc2Cl)C1 (stereo unspecified)
  5 | -4 | 0.5 | 0.2 | -0.1 | 2.7 | 5 | 12 | -4% | 7
2	O=C(COC(=O)CCSc1ccc(Cl)cc1)NCc1ccccc1Cl
  / | / | / | / | -0.1 | 2.6 | -3 | -2 | / | 1
3	CSc1ccccc1C(=O)OCC(=O)NCCN1C(=O)CSC1=O
  6 | 10 | 3.7 | -1.0 | -0.9 | / | 3 | / | / | /
4	Cc1ccc(NC(=O)c2ccc3ccccc3n2)cc1S(=O)(=O)N(C)C
  7 | 21 | 0.0 | 0.0 | 0.5 | -3.1 | 3 | 14 | 4% | 7
5	CN(C)CCCN1C(=O)C(=O)/C(=C(/O)c2ccncc2)C1c1ccccc1 (stereo unspecified)
  / | / | / | / | 1.5 | 4.0 | -2 | -2 | / | 8
6	COc1ccc(NCc2nnc(SCC(=O)N3CCCc4ccccc43)o2)cc1
  / | / | / | / | 0.7 | 2.1 | -3 | -2 | >100µM* | -10
7	CCc1ccccc1NC(=O)CSc1nc2ccccc2n1CC(=O)N(C)C
  / | / | / | / | / | 3.3 | / | 16 | -4% | -7
8	Cc1ccccc1NC(=O)c1c(C)[nH]c(=S)c(C#N)c1-c1ccc(Cl)cc1
  1 | -1 | 4.8 | -0.2 | 1.0 | 0.3 | -5 | -9 | -1% | 3
9	C=CCNCC(O)COc1ccc(C(C)=O)cc1OC (stereo unspecified)
  14 | 6 | -4.0 | ? | -0.2 | 0.8 | 0 | 2 | / | 5
10	Cc1c(-c2ccccc2)[n+](=O)c(-c2ccc(Br)cc2)c(C)n1[O-]
  20 | 48 | -1.3 | 16 | 0.2 | ? | 3 | -1 | 31% | 7

Screen by screen, quoted from above.
Entries 2–10 in rRNA inh HTS RFP, in turn: /, 3.7, 0.0, /, /, /, 4.8, -4.0, -1.3
Entries 2–10 in Vif A3G, in turn: /, /, 4%, /, >100µM*, -4%, -1%, /, 31%

The results go on:
Below each SMILES – rRNA inh HTS | rRNA inh HTS OD600 | rRNA inh HTS RFP | AF4-AF9 inh | A1 inh | RanGTP-Impb inh | Beta cell apopt | T cruzi repl | Vif A3G | Calb FLC
11	Cc1cc(C(=O)COC(=O)C2COc3ccccc3O2)c(C)n1CC1CCCO1 (stereo unspecified)
  / | / | / | / | 0.4 | 1.1 | 0 | -33 | 0% | 11
12	O=C(OCC(=O)N1CCc2ccccc21)c1ccc(Br)o1
  8 | 14 | 0.8 | 3.9 | 0.8 | / | -3 | / | / | /
13	CC(C)CCNC(=O)NC(=O)COc1ccccc1C#N
  / | / | / | / | 0.5 | -5.6 | -6 | -18 | -4% | -9
14	Cc1ccsc1C(=O)OCC(=O)Nc1sccc1C(N)=O
  / | / | / | / | -6.6 | 1.1 | / | -5 | -3% | 96*
15	COc1cc(C(=O)N2CCN(Cc3ccccc3C(F)(F)F)CC2)cc(OC)c1OC
  / | / | / | / | 0.1 | 3.3 | -9 | -21 | 17% | ?
16	O=C(N/C(=C/c1ccc(Br)cc1)C(=O)N1CCOCC1)c1cccs1
  8 | 1 | 0.8 | 0.3 | -1.7 | -1.1 | 4 | 3 | -3% | 6
17	CCOC(=O)/C=C/C(=O)Nc1ccc(S(=O)(=O)N(C)c2ccccc2)cc1
  -15 | -20 | 2.3 | -2.2 | 0.3 | -1.8 | -19 | 0 | 0% | -20
18	O=C(Nc1cccc2ccccc12)c1ccccc1NS(=O)(=O)c1cccc2cccnc12
  16 | 10 | -1.9 | 1.3 | -0.2 | 1.5 | -6 | 0 | -10% | 1
19	CCC(=O)Nc1ccc2oc(-c3cccnc3)nc2c1
  3 | -8 | 1.2 | / | -0.8 | -0.9 | -2 | -3 | -7% | -8
20	CCOc1cc(CO)ccc1OCC(=O)N1CCCCC1
  / | / | / | / | 0.2 | ? | -11 | -7 | 4% | 15
21	CN(C)c1ccc(/C=C2\C(=N)N3N=C(CC(=O)N4CCCCC4)SC3=NC2=O)cc1
  -8 | 3 | 4.4 | 0.6 | 0.2 | -13 | -5 | -6 | / | 7
22	COc1ccc(S(=O)(=O)N2CCOCC2)cc1C(=O)N1CCCC1
  8 | 7 | 1.3 | -2.2 | 0.7 | 4.5 | -4 | -3 | 2% | 20
23	Cc1ccc(-c2nc3c4ccccc4ccn3c2CN2CCCCC2)cc1
  -53 | -77 | -26 | 8.5 | 0.7 | -1.4 | 15 | 34 | 7% | 41
24	Cc1ccc(CN2C(=O)CCC2C(=O)NCc2ccccc2Cl)cc1 (stereo unspecified)
  2 | 8 | 11 | 10 | 0.2 | 2.9 | 2 | -14 | / | 4
25	O=C(Cn1nc(-c2ccccc2)c2ccccc2c1=O)Nc1ccc(O)cc1
  1 | 5 | 1.8 | -6.0 | 0.4 | -1.8 | -4 | -2 | -22% | -9
26	COCC(C)OC(=O)c1c(N)n(-c2ccc(OC)c(OC)c2)c2nc3ccccc3nc12 (stereo unspecified)
  / | / | / | / | -0.3 | -1.8 | 2 | -24 | 8% | 11
27	O=C(CCC(=O)c1ccc(F)cc1)Nc1cccc(Br)c1
  3 | 3 | -0.2 | -4.1 | 2.3 | 4.4 | 1 | -10 | -4% | -17
28	Cc1ccc(NC(=O)CN2CCC3(O)CCCCC3C2c2ccc3c(c2)OCO3)c(C)c1 (stereo unspecified)
  / | / | / | / | 0.8 | -0.4 | -2 | 43 | 3% | -4
29	CN(C)c1cc(-c2cccc([N+](=O)[O-])c2)oc(=O)c1Cl
  11 | 13 | -2.3 | -2.3 | 0.6 | ? | 6 | 5 | 8% | -6
30	C=CCn1c(SCC(=O)NC(=O)Cc2ccccc2)nnc1-c1ccccc1F
  4 | 8 | -1.7 | -2.4 | -0.1 | / | -4 | / | -9% | /
31	C=CCn1cccc(C(=O)Nc2ccc(OC)c(Cl)c2)c1=O
  / | / | / | / | -0.9 | 1.5 | 2 | -18 | -3% | 18
32	CC(=O)C1=C(O)C(=O)N(c2ccc(C(=O)O)cc2)C1c1ccc([N+](=O)[O-])cc1 (stereo unspecified)
  7 | 9 | 0.9 | -1.3 | 0.2 | 5.1 | -3 | -6 | / | -1
33	Cc1onc(-c2c(Cl)cccc2Cl)c1C(=O)N=C(N)N1CC(C)OC(C)C1 (stereo unspecified)
  -8 | 11 | 4.1 | -0.9 | 0.0 | 1.4 | 0 | -12 | -9% | 5
34	O=C(/C=C/Sc1ncn[nH]1)c1ccc(Cl)cc1
  -8 | 1 | 1.0 | 5.2 | 1.5 | -1.4 | -31 | 56* | 9% | 44
35	CC1(C)OC(=O)N(c2cccnc2)C1(C)O (stereo unspecified)
  / | / | / | / | 0.5 | -6.0 | -4 | -7 | -4% | -1
36	Cc1nc(NCCc2ccccc2)sc1C(=O)N(C)C
  6 | -3 | -2.4 | -1.0 | -2.4 | ? | -3 | 5 | / | -5
37	Cc1ccc(NC(=O)CSc2ccc(-c3ccccn3)nn2)cc1F
  4 | 2 | -1.7 | 0.2 | 0.9 | 4.5 | 6 | 27 | / | -7
38	O=C(c1ccc(OC2CCN(Cc3cccc(F)c3)CC2)cc1)N1CCCCC1
  1 | -8 | -0.3 | 2.4 | -0.3 | 0.1 | -1 | 18 | -3% | -9
39	CCC(=O)Nc1nc(C)c(C(=O)N2CCCCC2)s1
  -3 | 3 | -0.7 | 2.1 | 0.2 | -4.5 | 0 | 4 | -1% | 4
40	Cc1ccc(NC(=O)CN2CCN(CCN=CC3=C(O)CC(C)(C)CC3=O)CC2)cc1
  / | / | / | / | 0.6 | 8.6 | -7 | 7 | 10% | -1
41	O=C(O)c1ccc(Oc2ccccc2)o1
  -2 | -7 | -2.7 | -2.6 | 0.3 | -0.5 | / | -9 | ? | -2
42	Cc1cc(NC(=O)CC(C)(C)C)nc2c1c(=O)oc1ccccc12
  0 | -3 | 4.6 | 3.5 | 0.1 | 3.5 | / | 42 | -6% | 0
43	COc1ccc(N2CCN(S(=O)(=O)CCNC(=O)C3CC(=O)N(c4ccccc4)C3)CC2)cc1 (stereo unspecified)
  2 | 0 | -0.9 | -2.7 | 0.7 | -0.8 | -9 | -8 | -6% | -8
44	O=c1[nH]c(CSc2ncc(C(F)(F)F)cc2Cl)nc2ccccc12
  6 | 6 | -2.1 | -16 | -0.1 | -3.5 | 0 | 5 | / | -1
45	CNc1oc(-c2ccc(OCc3ccccc3)cc2)nc1C#N
  / | / | / | / | -1.1 | 1.2 | 3 | -13 | 22% | 12
46	COc1ccccc1NC(=O)CC(c1ccc(F)cc1)c1ccco1 (stereo unspecified)
  8 | -6 | 3.7 | 6.2 | 0.2 | 0.8 | -1 | / | -4% | -12
47	Cc1cc(CN(C)C(=O)c2ccc3nc(Cc4ccccc4F)oc3c2)on1
  2 | -1 | 2.6 | 0.0 | 0.0 | 4.4 | 4 | 9 | / | 1
48	Cc1ccc2occ(/C=N/NC(=O)c3ccc(O)cc3)c(=O)c2c1
  -6 | -9 | -1.1 | 1.9 | -0.7 | -1.4 | -16 | 5 | / | 10
49	CC1CCCCC1NC(=O)Cn1cnc2c1c(=O)n(C)c(=O)n2C (stereo unspecified)
  -3 | 1 | 0.3 | -2.8 | 2.0 | / | -8 | / | / | /
50	COc1ccc(-n2nnnc2SC(C)C(N)=O)cc1 (stereo unspecified)
  10 | 3 | 1.4 | 1.0 | 0.0 | 1.4 | -2 | -11 | -2% | -9
51	CCCCNC(=O)c1onc(CSc2ccc(OC)cc2)c1C(=O)O
  -10 | -8 | 5.9 | -1.5 | -0.7 | 0.0 | -5 | -21 | 0% | -1

Given with bars between the fields: 4 of the compounds above
entry | mol | rRNA inh HTS | rRNA inh HTS OD600 | rRNA inh HTS RFP | AF4-AF9 inh | A1 inh | RanGTP-Impb inh | Beta cell apopt | T cruzi repl | Vif A3G | Calb FLC
49 | CC1CCCCC1NC(=O)Cn1cnc2c1c(=O)n(C)c(=O)n2C (stereo unspecified) | -3 | 1 | 0.3 | -2.8 | 2.0 | / | -8 | / | / | /
51 | CCCCNC(=O)c1onc(CSc2ccc(OC)cc2)c1C(=O)O | -10 | -8 | 5.9 | -1.5 | -0.7 | 0.0 | -5 | -21 | 0% | -1
44 | O=c1[nH]c(CSc2ncc(C(F)(F)F)cc2Cl)nc2ccccc12 | 6 | 6 | -2.1 | -16 | -0.1 | -3.5 | 0 | 5 | / | -1
47 | Cc1cc(CN(C)C(=O)c2ccc3nc(Cc4ccccc4F)oc3c2)on1 | 2 | -1 | 2.6 | 0.0 | 0.0 | 4.4 | 4 | 9 | / | 1
